Screening data (PubChem BioAssay)
PINK1 expr mod – A Quantitative High throughput Screen to Identify Chemical Modulators of PINK1 Expression. PINK1 immunofluorescence, high-content cytometry, 24 h. Potency, µM (series often up to 76.6 µM), for inactives: top-dose activation (PINK1 increase), actives largely listed as activators. 410,000 compounds, 0.2% hits; active = well fitted activation curve with a large enough effect; inconclusive = small, poorly fitted or top-dose-only effect; inactive = flat fitted curve, though single readings scatter; cell line not stated here;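 note: potency is the fitted concentration of half-maximal effect; % of control where 0% means no effect; nearly all actives have a fitted effect of over 65% in size; a mitochondrial uncoupler was the plate control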
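Stable cell line, 250 cells/well, 12 h attachment; compounds pinned at 5 concentrations, 24 h; CCCP control. Fixed with nuclear dye, primary antibodies 12 h at 10 degrees C, secondary plus cell stain; laser-scanning cytometer read.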
D2 ag – Beta-Arrestin HTS for Positive Allosteric Modulators of the Human D2 Dopamine Receptor: Agonists. D(2) dopamine receptor (Homo sapiens), P14416. DiscoveRx PathHunter D2 beta-arrestin, luminescence, 90 min; 100% = 57 uM dopamine signal. 360,000 compounds, 0.084% hits. activation, % (test concentration not listed); in the data active = activation above about 40%; inconclusive = about 15% to 40%; inactive = below about 15%; note: compound concentration not given in the record; the text of the record calls up to 30% inactive
Target sequence (P14416 whole entry, looked up): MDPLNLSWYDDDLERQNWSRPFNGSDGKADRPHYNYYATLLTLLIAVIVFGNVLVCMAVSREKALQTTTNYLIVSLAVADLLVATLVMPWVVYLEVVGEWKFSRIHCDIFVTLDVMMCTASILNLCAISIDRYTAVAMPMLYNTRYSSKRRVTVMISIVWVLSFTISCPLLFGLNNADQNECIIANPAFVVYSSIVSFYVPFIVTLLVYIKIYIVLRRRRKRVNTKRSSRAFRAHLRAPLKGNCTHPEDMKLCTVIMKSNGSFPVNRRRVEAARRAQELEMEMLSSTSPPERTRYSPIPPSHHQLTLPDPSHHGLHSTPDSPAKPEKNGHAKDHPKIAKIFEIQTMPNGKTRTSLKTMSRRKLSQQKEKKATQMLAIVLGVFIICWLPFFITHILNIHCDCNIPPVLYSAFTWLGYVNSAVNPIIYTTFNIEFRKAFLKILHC
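Agonist mode: compounds alone added to overnight-plated D2 PathHunter cells for 90 min at 37 C, with 57 uM final dopamine (EC100) defining full response. Beta-arrestin recruitment detected by chemiluminescent reagent, read after 1 h at ambient temperature.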
ClpP mod – qHTS Assay for Activators of ClpP; ATP-dependent Clp protease proteolytic subunit (Bacillus subtilis (strain 168)), P80244; purified B. subtilis ClpP, FRET peptide cleavage, 20 min; Potency, µM (highest dose often 57.5 µM), inactives show at the highest dose activity change, negative = active; 340,000 compounds, 1.9% hits; AID 651965, 2013; active = well fitted falling curve with a large enough effect; inconclusive = small, poorly fitted or top-dose-only effect; inactive = no such curve, though single readings can be large or run the other way; note: potency is the fitted concentration of half-maximal effect; the source files actives as falling curves though it sought activators and does not explain the sign; nearly all actives have a fitted effect of over 65% in size; many hits overshoot -100%
Target sequence (P80244 whole entry, looked up): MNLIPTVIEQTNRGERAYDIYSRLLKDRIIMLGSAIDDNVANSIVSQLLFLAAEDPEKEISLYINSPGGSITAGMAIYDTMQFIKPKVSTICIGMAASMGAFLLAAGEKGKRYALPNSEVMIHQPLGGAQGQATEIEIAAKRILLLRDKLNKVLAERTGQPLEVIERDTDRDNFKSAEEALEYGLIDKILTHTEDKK
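Buffer: 100 mM Tris/HCl pH8, 100 mM KCl, 0.05% low protease BSA, 2.5% glycerol, 0.01% Tween-20. ClpP 10 microg/mL final; 20 min RT; delta FRET normalized to ADEP and DMSO controls.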
gsp ag – qHTS for Agonist of gsp, the Etiologic Mutation Responsible for Fibrous Dysplasia/McCune-Albright Syndrome: qHTS; gsp mutant cells, cAMP HTRF, 30 min; control for the full effect not named in the record; AID 624287, 2012; 340,000 compounds, 0.13% hits; Potency, µM (series often up to 76.9 µM), without a hit: top-dose activation (cAMP increase), most hits filed as activators; active = well fitted activation curve with a large enough effect; inconclusive = small, poorly fitted or top-dose-only effect, or another doubt; inactive = no such curve, though single readings can be large or run the other way; cell line not stated here;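 note: phosphodiesterase inhibitor Ro 20-1724 added with compounds to block cAMP breakdown; potency is the fitted concentration of half-maximal effect; nearly all actives have a fitted effect of over 60% in size; about a fifth of the inactives were tested at one dose only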
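Cells in DMEM/10% FBS with G418 were pretreated with compounds in DMSO plus […] (300 uM stock) for 30 min at 37C. cAMP was measured by HTRF (cAMP-d2 plus anti-cAMP antibody-K) after 30 min at room temperature.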
Menin-MLL FL inh – qHTS Assay for Inhibitors Targeting the Menin-MLL Interaction in MLL Related Leukemias: Competition With Fluorescein Labeled MLL-derived Peptide | AID 1766, 2009 | FP activity change, % at 61.4 µM | Fluorescence polarization, fluorescein-MLL peptide displacement from menin | 290,000 tested, under 10 active; inconclusive = falling polarisation curve, or a change in total fluorescence; inactive = total fluorescence flat and polarisation flat or rising; no compound was filed as active; the % refers to the polarisation; negative = inhibition;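 note: % of control where 0% means no effect; inhibitors lower the polarisation; unlabelled MLL peptide was the positive control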
Sfp PPTase inh – qHTS Assay for Inhibitors of Bacillus subtilis Sfp phosphopantetheinyl transferase (PPTase). 4'-phosphopantetheinyl transferase ffp (Bacillus subtilis), Q9F4F7. Biochemical Sfp PPTase activity, qHTS. Potency, µM, without a hit: max response, negative = inhibition, hits mostly inhibitors. 310,000 compounds, 3.5% hits. AID 1490, 2009; active = well fitted inhibition curve with a large enough effect; inconclusive = small, poorly fitted or top-dose-only effect, or another doubt; inactive = no such curve, though single readings can be large or run the other way;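 note: the enzyme is Sfp with the accession as filed and its product quenches rhodamine fluorescence; potency is the fitted concentration of half-maximal effect; 0% = enzyme reaction without inhibitor and -100% = no enzyme wells; top concentration of the series not given in the record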
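Reaction rates are the 30-min fluorescence difference (ex 525, em 598 nm) in wells containing 15 nM Sfp, 5 uM rhodamine-CoA and 12.5 uM BHQ-2-YbbR at pH 7.6 with 10 mM MgCl2.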
gsp antag – qHTS for Antagonists of gsp, the Etiologic Mutation Responsible for Fibrous Dysplasia/McCune-Albright Syndrome: qHTS | gsp-mutant cells, cAMP HTRF, 30 min; control for the full effect not named in the record | Potency, µM (doses to about 76.9 µM), without a hit: top-dose activity change, negative = inhibition, most hits filed as inhibitors | 340,000 compounds, 0.4% hits; active = falling curve of any shape with a large fitted effect; inconclusive = falling curve, mostly with a smaller effect; inactive = flat or rising curve; cell line not stated here;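 note: intracellular cAMP measured with PDE inhibitor Ro 20-1724 present during compound exposure; potency is the fitted concentration of half-maximal effect; % is set by controls: 0 for no effect and ±100 for the full control effect; nearly all actives have a fitted effect of over 65% in size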
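HTRF cAMP read-out (cAMP-d2 plus anti-cAMP antibody-K in lysis buffer, 30 min RT). Before lysis, cells are exposed to compounds with […] for 30 min at 37C in DPBS containing Ca/Mg, BSA and Tween 20.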
* = called active by the depositor; u = inconclusive; x = not tested or not shown; & = joins results of further samples; [ ] = remark or other dose.

Preview (2 entries):
SMILES	PINK1 expr mod	D2 ag	ClpP mod	gsp ag	Menin-MLL FL inh	Sfp PPTase inh	gsp antag
Cc1ccc(C(=O)Cn2c(C(=O)/C=C/c3ccccc3)nc3ccccc32)cc1	-1.1%	-3.4	14%	0%	0.2	u	-9%
CC#CCN(Cc1ccco1)C(=O)c1ccc(OC2CCN(Cc3ccccn3)CC2)cc1	1.2%	-4.0	-1.7%	-26%	x	4%	3%

Results, repeating the preview:
SMILES	PINK1 expr mod	D2 ag	ClpP mod	gsp ag	Menin-MLL FL inh	Sfp PPTase inh	gsp antag
Cc1ccc(C(=O)Cn2c(C(=O)/C=C/c3ccccc3)nc3ccccc32)cc1	-1.1%	-3.4	14%	0%	0.2	u	-9%
CC#CCN(Cc1ccco1)C(=O)c1ccc(OC2CCN(Cc3ccccn3)CC2)cc1	1.2%	-4.0	-1.7%	-26%	x	4%	3%
Cc1occc1C(=O)n1nnc2ccccc21	7.9%	-3.2	1.8%	-1%	3.8	32µM*	10%
c1ccc(NCCc2ccccn2)cc1	-3.1%	0.5	x	-7%	x	x	10%
CCn1nc(NC(=O)c2cccnc2)c2cc3cccc(C)c3nc21	4.6%	-5.2	-0.7%	-2%	1.3	5%	6%
COC(=O)C1=C(C)NC(=O)NC1c1ccsc1 (centres undefined)	0.4%	-1.0	0.6%	-36%[inhibitor]	1.7	-2%	-5%
CC(C)Oc1ccc(/C(O)=C2/C(=O)C(=O)N(CCN3CCOCC3)C2c2ccccc2)cc1 (centres undefined)	1.9%	-2.8	-2.8%	u	2.0	-4%	16%
CCc1c(C)nc2ncnn2c1N1CCCC(C(=O)NCc2cccs2)C1 (centres undefined)	0.2%	-13	-0.1%	21%[15.4 µM]	1.1	3%	-8%
Cc1c(O[C@@H]2O[C@H](CO)[C@@H](O)[C@H](O)[C@H]2O)c(CO)c(O[C@@H]2O[C@H](CO)[C@@H](O)[C@H](O)[C@H]2O)c2c1O[C@@H](c1ccccc1)C[C@@H]2O	-1.2%	-2.7	-1.5%	x	x	x	11%
COCCN1CC(=O)N2C(c3cccc(C)c3)c3[nH]c4ccccc4c3C[C@H]2C1=O (some centres undefined)	4.1%	0.8	-0.3%	-4%	-1.2	4%	4%
O=S(=O)(c1ccc(-c2cnc(C3CC3)o2)cc1)N1CCN(c2ccccc2)CC1	8.7%&4.9%	5.2	-10%&-16%	-2%	x	5%	2%
COC(=O)c1ccccc1NC(=O)c1nc2nc(C)cc(C)n2n1	0.4%	3.2	-3.8%	u	3.6	7%	-6%
CCOC(=O)N1CCN(S(=O)(=O)c2ccc3c(c2)CCN3C(=O)C2CCC2)CC1	-1.4%	1.1	-2.0%	0%	1.0	3%	-11%
CC(Nc1n[nH]c(=S)[nH]c1=O)C(=O)OCc1ccccc1 (centres undefined)	0.0%[38.3 µM]	-2.4	-1.0%	-2%	1.9	-25%	-11%
CC(C)NC(=S)NC(c1ccccc1)(c1ccccc1)c1ccccc1	u	-0.3	1.9%	-21%	-1.1	0%	-15%
O=C(O)Cc1cccc2ccccc12	5.1%	2.7	0.9%	x	-2.7	18%	1%
Cn1ccc(C(=O)NC(=S)Nc2ccc([N+](=O)[O-])cc2O)n1	3.3%	-9.1	0.3%	u	x	u	u
COc1ccc(-c2nnn(CC(=O)N(CCO)C(C(=O)NC3CCCC3)c3ccc(F)cc3)n2)cc1 (centres undefined)	2.5%[38.3 µM]	-2.4	-1.0%	-17%	4.0	-10%	2%
CCOC1=C2[C@H](c3ccc(Cl)cc3)N(S(=O)(=O)c3ccc(C)cc3)C[C@H]2n2c(=O)n(-c3ccccc3)c(=O)n2C1	1.7%	-0.4	-1.1%	x	x	x	x
CCc1ccc(NC(=O)Nc2ccc3c(c2)CCC3)cc1	0.5%	-2.8	-4.3%	-34%[inhibitor]	x	13%	-1%
COC(=O)c1ccc(CSc2ncn[nH]2)o1	0.7%	-4.0	0.3%	u	-1.0	4%	-3%
CC(C)N=C1NN=C(c2ccc(Cl)c(Cl)c2)CS1	-0.1%	1.0	x	-22%	-1.5	0%	-11%
Fc1cccc(-c2cc3nc4c(c(N5CCC6(CC5)OCCO6)n3n2)CCCC4)c1	x	-4.5	28µM*	u	4.9	u	-7%
O=C(Nc1ccc2sc3ccccc3c(=O)c2c1)c1ccccc1Cl	2.8%	-1.7	u	0%	3.8	13%	-5%
Cc1ccc2nc(NC(=O)c3ccccc3F)sc2c1	5.8%	6.2	0.4%	-2%[15.4 µM]	-0.9	22%	8%
CC(=O)Nc1cccc(NC(=O)c2ccc3c(c2)CCN3S(C)(=O)=O)c1	-0.3%	-3.4	-3.2%	-2%	11	10%	-7%
O=C(CSc1nc(=O)n2ccccc2n1)OCc1ccccc1	0.3%	4.1	-18%	u	x	x	-4%
CN(C)S(=O)(=O)c1ccc(Nc2nc(C3CC3)nc3c2nnn3Cc2ccccc2Cl)cc1	4.0%	9.6	32µM*	20%[15.4 µM]	1.1	15%	-3%
CCOC(=O)C1(Cc2cccc(OC)c2)CCCN(Cc2cc(OC)c(O)c(OC)c2)C1 (centres undefined)	-0.7%	-2.9	1.6%	-2%	-2.7	3%	-4%
COC(=O)c1ccc(NC(=O)C(=O)N2CCN(C(=S)Nc3ccccc3OC)CC2)cc1	-0.4%	0.3	1.1%	-11%	2.0	4%	-9%
CC1CCN(c2c(NCC3CCC(C(=O)NCCc4ccccc4)CC3)c(=O)c2=O)CC1 (centres undefined)	-0.3%	0.7	2.5%	2%	-2.8	16%	-10%
CN1C(=S)SC(/[N+]([O-])=C\c2cccs2)C1(C)C (centres undefined)	1.0%	-2.5	-3.4%	-6%	-1.5	12%	-2%
CCn1c(CN2CCN(c3cccc(C)c3C)CC2)n[nH]c1=S	-0.9%	-8.3	x	-7%[15.4 µM]	1.9	6%	-19%
COc1cccc(OC)c1NC(=O)c1ccc(-c2cc(Cl)ccc2Cl)o1	-0.9%	-3.2	-24%	x	x	x	x
Cc1cc(=O)oc2cc(OCC(O)CN3CCN(c4ccccc4)CC3)ccc12 (centres undefined)	-0.7%	52*	32µM*	25%	6.4	6%	1%
Cc1ccc(C(=O)Nc2c(-c3cccs3)nc3cc(C)ccn23)cc1	4.3%[38.3 µM]	-2.5	-0.3%	-21%	1.8	-16%	-1%
Cc1nc2sc(C(=O)Nc3ccccc3)c(N)c2c(C)c1[N+](=O)[O-]	5.2%	1.6	1.2%	8%	-3.0	1%	-3%
COC1=C/C(=C/c2c(N)n3nc(CC(=O)N4CCCCC4)sc3nc2=O)C=CC1=O	1.3%	-2.4	1.9%	1%	u	9%	-12%
CCN1CC2([N+](=O)[O-])CC=C(OC)C([N+](=O)[O-])(C1)C2 (centres undefined)	-0.8%	-5.5	-3.0%	11%[15.4 µM]	12	4%	10%
COc1ccc(OC)c(NC(=O)C2(C)CCN2Cc2ccccc2OC(F)F)c1 (centres undefined)	1.4%	108*	-0.9%	x	x	x	x
COC(=O)C1=C(C)NC(=O)/C1=C/c1ccc(CNS(=O)(=O)c2ccc(C)cc2)o1	8.4%	-4.9	x	-23%[15.4 µM]	-1.4	u	-8%
COc1cccc(-c2nc(CCl)cs2)c1	-2.3%	-2.9	-16%	-13%[15.4 µM]	1.7	12%	0%
Cc1cc2c3c(c1)C(C)(c1ccccc1)CC(C)(C)N3C(=O)C21C(C#N)=C(N)OC2=C1C(=O)CC(C)(C)C2 (centres undefined)	-4.2%[38.3 µM]	0.3	0.8%	-15%	1.4	10%	-8%
CCn1cc(/C=C(\NC(=O)c2ccc(OC)c(OC)c2)C(=O)NCCN2CCOCC2)c2ccccc21	1.5%	-3.9	0.5%	11%	1.0	1%	-6%
CN(C)c1ccc(NC(=O)c2cnsn2)cc1	0.0%	-11	-0.9%	-34%[15.4 µM]	3.2	-5%	-19%
O=C(NCc1ccccc1)c1ccc(-c2ccccc2F)o1	-6.4%[38.3 µM]	-2.6	-27%	-42%[inhibitor]	-2.2	3%	-9%
COc1cccc(C(=O)OCC(=O)Nc2ccccc2N2CCOCC2)c1	1.0%	-0.6	-1.3%	12%	5.1	11%	-9%
O=C(NNC(=S)NC(=O)c1ccco1)c1ccc(F)cc1	2.4%	-6.5	-0.7%	-113%[inhibitor]	1.0	u	5%
O=c1c2sccc2nc(SCc2cc(=O)n3cc(Br)ccc3n2)n1Cc1ccccn1	-0.4%	-1.5	-2.1%	25%[15.4 µM]	-0.5	-15%	6%
O=C1NC(Cc2c[nH]c3ccccc23)C(=O)N1c1ccc(F)cc1 (centres undefined)	-0.1%	-2.1	0.7%	-20%	0.8	0%	19%
O=C(Nc1ccc(N2CCOCC2)nc1)c1c(F)cccc1F	1.3%	-1.6	x	1%[15.4 µM]	-28	11%	10%
Cc1cc(Cl)c(S(=O)(=O)Nc2cc(S(=O)(=O)N3CCOCC3)ccc2F)cc1OCC(N)=O	0.3%	-4.4	-2.1%	u	-1.1	16%	-11%
Cc1ccc(C(=O)N2CCCC2)c(F)c1F	-1.5%[38.3 µM]	-2.1	-1.4%	u	-0.7	16%	17%
O=C(NCCCn1ccnc1)c1cc2c(s1)CCCCC2	-1.4%[38.3 µM]	1.0	-1.0%	u	3.4	0%	9%
COc1nc(C)nc2c1sc(=S)n2C	0.7%	-1.9	-3.1%	16%	0.0	9%	11%
COc1cccc(Nc2ncnc3nc[nH]c23)c1	0.0%	-4.9	-1.7%	-23%	1.7	8%	6%
